# Screening data (PubChem)
# Autofluor counter: compound fluorescence in toxin protease inhibitor counterscreen; 360,000 tested, 3.1% active; compound autofluorescence counterscreen, microsphere flow cytometry; hits give high values; fluorescence intensity (test concentration not listed);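 active = at least 3 SD above the mean of all compounds, about 16000 in these data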;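 note: 100 nL of 1 mM stock went into each well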
# PrP UTR inh: suppresses PrP 5' UTR mRNA reporter expression | cell-based PrP 5' UTR mRNA reporter, plate reader | inhibition, % (test concentration not listed) | 340,000 tested, 0.35% active;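 active = every replicate at 50% or more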;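 note: 0 = median of the neutral control wells; tested in H4 reporter cells; numbers are from one replicate; inactives centre near -14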
# * hit, by the source's call. Not all compounds are listed; the hit share may differ from the screen's.
# The first 3 entries (preview)
# Each structure is followed by: Autofluor counter, PrP UTR inh
- C=CC[C@H](CC(=O)N(CCO)Cc1ccccc1)C(=O)N[C@@H](COC(=O)[C@@H](CC=C)CC(=O)OC(C)(C)C)Cc1c[nH]c2ccccc12
  3668, -14
- CN1OC[C@@H]2CN(C(=O)C(C)(C)C)[C@H](c3cccc(N4CCOCC4)c3)C[C@@H]21
  4168, -14
- COc1cc2c(cc1OC)C1[C@H]3C(=CC[C@H]1OC2O)CCN3C (some centres undefined)
  4422, 0

# The listing (from the top)
# Each structure is followed by: Autofluor counter, PrP UTR inh
- C=CC[C@H](CC(=O)N(CCO)Cc1ccccc1)C(=O)N[C@@H](COC(=O)[C@@H](CC=C)CC(=O)OC(C)(C)C)Cc1c[nH]c2ccccc12
  3668, -14
- CN1OC[C@@H]2CN(C(=O)C(C)(C)C)[C@H](c3cccc(N4CCOCC4)c3)C[C@@H]21
  4168, -14
- COc1cc2c(cc1OC)C1[C@H]3C(=CC[C@H]1OC2O)CCN3C (some centres undefined)
  4422, 0
- Cc1ccccc1NC(=O)Cc1nc(COC(=O)Cc2ccccc2)cs1
  3812, 1
- O=[N+]([O-])c1ccc2c(c1)-c1ccccc1C2=NO
  3551, -2
- CCOC(=O)C1=C(C)c2ccccc2OC1(C)C(=O)OCC (centres undefined)
  3556, -23
- Cc1ccc(S(=O)(=O)N2[C@@H](c3ccccc3F)C(C(=O)O)=CC[C@H]2c2cccc(Cl)c2)cc1
  3999, -19
- CCN1C[C@@H]2[C@@H]3C(=O)N(C)C(=O)[C@@H]3[C@](CC)(C1=O)N2C(=O)c1ccc(C)cc1
  4309, -20
- C[C@H](Cc1ccccc1)Nc1ncnc2c1ncn2[C@@H]1O[C@H](CO)[C@@H](O)[C@H]1O
  5420, -6
- C#CCOCCOCCOCCNc1nc(N2CCN(C(=O)CCCCCCCCCCNC(=O)[C@H]([C@@H](C)CC)n3cc(CCCCN=C(N)N)nn3)CC2)nc(N2CCN(C(=O)CCCCCCCCCCNC(=O)[C@H](CO)n3cc(CCCCCN)nn3)CC2)n1
  4275, -22
- O=C(NCCO)c1c(-c2ccc3c(c2)OCO3)noc1-c1ccsc1
  3925, -7
- CC(C)=CCC[C@](C)(O[C@@H]1O[C@H](CO[C@@H]2OC[C@H](O[C@@H]3OC[C@@H](O)[C@H](O)[C@H]3O)[C@H](O)[C@H]2O)[C@@H](O)[C@H](O)[C@H]1O)C1CC[C@]2(C)C1[C@H](O)CC1[C@@]3(C)CC[C@H](O)C(C)(C)C3[C@@H](O)C[C@]12C (some centres undefined)
  3476, -10
- C[C@@H](NC(=O)c1[nH]cnc1C(=O)Nc1ccon1)c1ccccc1
  3025, -9
- C#CCOCCOCCOCCNc1nc(N2CCN(C(=O)CCCCCCCCCCNC(=O)[C@@H](CCC(=O)O)n3cc(CCCCCN)nn3)CC2)nc(N2CCN(C(=O)CCCCCCCCCCNC(=O)[C@H](CCCCN)n3cc(C[C@@H](C)CC)nn3)CC2)n1
  3995, -19
- O=C(NCCc1ccccc1)c1ccc(NC(=O)C2CC2)cc1
  3403, -66
- O=C1C=C(c2cccc(Cl)c2O)C[C@@H](c2ccc3c(c2)OCO3)C1
  3750, 3
- O=C(CCc1ccccc1)NNC(=O)c1ccncc1
  4317, -5
- CN(C)CCNC(=O)c1cccc2[nH]c(-c3ccncc3)nc12
  3535, -20
- COc1cccc2c1C(CO)N1C(C#N)C3CC(C(=O)O)C(C1C2)N3C (centres undefined)
  6023, 69*
- Cc1ccc(S(=O)(=O)N2[C@@H](c3ccccc3F)C(C(=O)O)=CC[C@H]2c2cccs2)cc1
  3393, -29
- O=C(O)CCC(=O)c1ccc2sc3ccccc3c2c1
  2703, 24
- COc1ccc(-c2ccc3c(c2)O/C(=C\c2ccsc2)C3=O)cn1
  4167, -41
- COc1cc(C)c(C2NC(=O)c3ccccc3N2)cc1C (centres undefined)
  3520, -45
- N#CC(c1ccc(O)cc1)N1CCN(C(C#N)c2ccc(O)cc2)CC1 (centres undefined)
  4346, -4
- Cc1noc(C)c1NC(=O)Nc1cccc2c1O[C@H](CN(C)C(=O)Nc1ccccc1)[C@@H](C)CN([C@H](C)CO)C2=O
  4007, -19
- C#CCOCCOCCOCCNc1nc(N2CCN(C(=O)CCCCCCCCCCNC(=O)Cn3cc(CCCCCN)nn3)CC2)nc(N2CCN(C(=O)CCCCCCCCCCNC(=O)Cn3cc(CCCCCN)nn3)CC2)n1
  3999, -20
- CC1CC2CCCC(O)=C2C(=O)O1 (centres undefined)
  5326, -2
- O=C(OCc1ccccc1)N(CCCCN(CCCNCc1ccccc1)C(=O)OCc1ccccc1)CCCNCc1ccccc1
  4398, -10
- COc1ccc(-c2sc3cc(OC)c(OC)cc3c2C#CC2(O)CCCCC2)cc1
  4424, -8
- Cc1ccc(S(=O)(=O)NNC(=O)c2cc(C)c(C)cc2N)cc1
  3658, -22

# An excerpt of these results, as comma-separated lines:
Compound,Autofluor counter,PrP UTR inh
CCN1C[C@@H]2[C@@H]3C(=O)N(C)C(=O)[C@@H]3[C@](CC)(C1=O)N2C(=O)c1ccc(C)cc1,4309,-20
C[C@H](Cc1ccccc1)Nc1ncnc2c1ncn2[C@@H]1O[C@H](CO)[C@@H](O)[C@H]1O,5420,-6
C#CCOCCOCCOCCNc1nc(N2CCN(C(=O)CCCCCCCCCCNC(=O)[C@H]([C@@H](C)CC)n3cc(CCCCN=C(N)N)nn3)CC2)nc(N2CCN(C(=O)CCCCCCCCCCNC(=O)[C@H](CO)n3cc(CCCCCN)nn3)CC2)n1,4275,-22
O=C(NCCO)c1c(-c2ccc3c(c2)OCO3)noc1-c1ccsc1,3925,-7

# Going on with the list.
# Each structure is followed by: Autofluor counter, PrP UTR inh
- N#Cc1ccc(C(=O)N2CCC3CC2c2cc(-c4ccccc4)ccc23)cc1 (centres undefined)
  3402, -27
- Cc1cn([C@H](C(=O)NCCCCCCCCCCC(=O)N2CCNCC2)[C@@H](C)O)nn1
  3011, -9
- COC(=O)C1=C(c2ccc(OC)c(OC)c2)C[C@@H]2CC[C@H]1N2C(=O)NCc1ccco1
  3997, -9
- COc1ccc2c(c1)OC[C@H]1[C@H]2N2C(=O)CN(C)C(=O)[C@@]2(C)[C@H]1c1ccccc1
  3902, -12
- CC1(C)O[C@@H]2[C@H](O1)[C@@H](COS(=O)(=O)O)O[C@H]2n1ccc(=O)[nH]c1=O
  3944, -9
- CN(C(=O)c1cccc(NC(=O)Cc2ccc(NC(=O)C3CCCN(C(=O)CCc4ccccc4)C3)cc2)c1)C1CCCC1 (centres undefined)
  4191, -23
- CCCCOc1ccc(N2C(=O)C(C)CNC2=S)cc1 (centres undefined)
  2950, -19
- O=C(C[C@@H]1C/C=C\C[C@H](NC(=O)OCC2c3ccccc3-c3ccccc32)C(=O)OC[C@@H]2CCCN2C1=O)N[C@H](CO)Cc1ccccc1
  4507, -14
- CC(C)(C)NC[C@@H](O)COc1cccc2c1CCCC2=O
  5850, -7
- O=S(=O)(c1ccc2c(c1)OCCO2)N1C[C@@H]2C[C@H]1CN2S(=O)(=O)c1c(F)cccc1F
  4121, -5
- O=C(N[C@@H]1C/C=C\C[C@@H](CC(=O)N(CCO)Cc2ccccc2)C(=O)N[C@@H](c2ccccc2)COC1=O)OCC1c2ccccc2-c2ccccc21
  3942, -8
- CC(C)C[C@@H](CN)NC(=O)c1nc[nH]c1C(=O)N[C@@H](C)C(=O)CNC[C@H](C)NC(=O)c1nc[nH]c1C(=O)N[C@@H](CC(C)C)C(=O)O
  3693, -11
- N#CC1C(=O)c2ccccc2C1c1ccccc1 (centres undefined)
  3982, -15
- NC(=S)N=Nc1c(O)cc(O)c2[nH]c(=O)ccc12
  3847, -28
- c1nc(C2CCCCC2)cc2cc3c(cc12)OCO3
  3645, -69
- Cc1ccc(S(=O)(=O)N2CCN(C(=O)COC(=O)CNC(=O)c3ccc(Cl)cc3Cl)CC2)c(C)c1
  2909, 10
- COc1cccc(-c2sc3ccccc3c2-c2ccc(OCCN3CCCC3)cc2)c1
  4025, -31
- C=CCC[C@H](Cc1ccc(F)cc1)C(=O)OC[C@H](Cc1c[nH]c2ccccc12)NC(=O)[C@@H](CC=C)CC(=O)N[C@H](CO)Cc1ccccc1
  4016, -3
- C=C[C@@H]1c2ccccc2N(S(=O)(=O)c2ccc(C)cc2)[C@H](c2ccccc2C(F)(F)F)C1(C#N)C#N
  3842, -32
- CCCCCCC(C)(C)c1ccc([C@@H]2C[C@H](O)CC[C@H]2CCCO)c(O)c1
  5825, -21
- COc1ccc(C(=O)COC(=O)c2cnc(C)cn2)cc1OC
  2960, -14
- COC(=O)C1=C(c2ccc(Cl)c(C(F)(F)F)c2)C[C@@H]2CC[C@H]1N2C(=O)NC1CC1
  4011, -7
- COc1cccc(/C=N\NC(=O)c2cc(OCC(F)(F)F)ccc2OCC(F)(F)F)c1
  4064, -26
- CCc1ccc([C@@H]2CC=C(C(=O)O)[C@H](c3ccc(Cl)cc3)N2S(=O)(=O)c2ccc(C)cc2)cc1
  3832, -11
- OC[C@H]1O[C@@H](n2cnc3c(NCc4ccco4)ncnc32)[C@H](O)[C@@H]1O
  8963, 21
- C=CCC[C@H](Cc1ccc(F)cc1)C(=O)OC[C@H](Cc1c[nH]c2ccccc12)NC(=O)[C@@H](CC=C)CC(=O)N(CCO)Cc1ccccc1
  4117, -15
- Cc1cccc(C)c1OCc1cn(CC(=O)c2ccc(O)cc2)nn1
  3793, -13
- C[C@H](CO)N1C[C@H](C)[C@@H](CN(C)C(=O)Nc2ccccc2)Oc2c(NS(=O)(=O)c3ccc(F)cc3)cccc2C1=O
  2966, 0
- CN(C)CCCN1c2ccc3ccccc3c2Sc2cccc(Cl)c21
  3157, -15
- CC(C)(C)C(=O)N1Cc2ccccc2-n2nncc2C1
  2920, 1

# Each structure is followed by: Autofluor counter, PrP UTR inh
- CC(=NNC(=S)N1CC2CCC(CC2)C1)c1cnccn1
  3454, 50
- O=C(NNc1nc(N2CCCC2)nc(N2CCCC2)n1)c1ccccc1
  3363, -17
- Nc1ncnc(N2CCOCC2)n1
  3533, -9
- NC(=O)c1ncn([C@@H]2O[C@H](CNCc3cccc(OC4CCCC4)c3)[C@@H](O)[C@H]2O)n1
  3864, -11
- O=C(CC(NC(=O)OCc1ccccc1)C(=O)OCc1ccccc1)OCc1ccccc1 (centres undefined)
  3991, -29
- CC1CN(c2cc(=O)n(-c3ccc(Cl)cc3)c(=O)[nH]2)CC(C)O1 (centres undefined)
  4683, -20
- Cc1cccc(CN(C)C)c1CC(O)(c1ccccc1)c1ccccc1
  3127, -12
- CCOC(=O)[C@H]1[C@H]2COc3cc(OC)ccc3[C@@H]2N2C(=O)CN(Cc3ccc(C)cc3)C(=O)[C@@]12C
  4189, -20
- CC(C)(C)NC(=O)C(c1ccc(-c2ccccc2)cc1)N(C[C@H]1CC[C@@H]([C@@H]2CC[C@H](CO)O2)O1)C(=O)c1ccc(-c2ccccc2)cc1 (some centres undefined)
  3678, 6
- C[C@@H]1CN([C@@H](C)CO)C(=O)c2cccc(NS(=O)(=O)c3cccs3)c2O[C@H]1CN(C)Cc1ccc(C(F)(F)F)cc1
  3165, -12
- Cc1ncc([N+](=O)[O-])n1S(=O)(=O)c1ccc2c(c1)OCCO2
  3077, -31
- CN(Cc1cccs1)C(=O)COc1cccc2c1OC(C)(C)C2
  3336, -35
- CNC(=S)NN=C(C)CCCC(C)=NNC(=S)NC
  3461, -12
- O=C(O)C1=CC[C@@H](c2ccc(Cl)cc2)N(S(=O)(=O)c2ccc(Cl)cc2)[C@H]1c1ccc(F)cc1
  3852, -14
- CCC1(CC)C(=O)NC(=O)N(c2ccccc2)C1=O
  5796, -2
- CCOC(=O)[C@]12Cc3cc(OC)ccc3[C@H]1N(Cc1ccccc1)C(=O)c1cc(F)c(F)cc12
  4043, -19
- C[C@@]12C(=O)OC(=O)[C@]1(C)C1CCC2O1
  5923, 29
- CCCOC(=O)c1ccc(NC(=O)COC(=O)C2CCN(c3ccc(C(F)(F)F)cn3)CC2)cc1
  3461, -24
- Cc1ccc(S(=O)(=O)N2[C@@H](c3ccc(Cl)cc3)C(C(=O)O)=CC[C@H]2c2ccc3c(c2)OCO3)cc1
  3875, 7
- C[C@H]1COC(=O)[C@@H](Cc2ccc(F)cc2)CC/C=C\C[C@H](CC(=O)NCCO)C(=O)N1
  3914, -13
- CNc1cccnc1C=NNC(N)=S
  2963, 27
- Cn1c(/N=C/c2c(O)ccc3ccccc23)nc2ccccc21
  10265, -1
- CCc1ccc(Nc2n[n+](-c3ccccc3)c(-c3cccc(C)c3)s2)cc1
  4574, -12
- CC(C)(C)OC(=O)N(Cc1ccccc1)Cc1cccc(OCc2cccc(NC(=O)c3ccccc3)c2)c1
  3704, -14
- C[C@H](CO)N1C[C@H](C)[C@@H](CN(C)S(=O)(=O)c2ccc(F)cc2)Oc2ccc(NC(=O)Nc3ccccc3)cc2C1=O
  4391, -11
- CC(C)(C)[C@H]1COC(=O)[C@H](NC(=O)OCC2c3ccccc3-c3ccccc32)C/C=C\C[C@@H](CC(=O)N[C@@H](CO)Cc2ccccc2)C(=O)N1
  3821, -16
- COC(=O)C1=C(c2c(C)noc2C)C[C@@H]2CC[C@H]1N2C(=O)NC(C)C
  3908, -24
- N[C@@]1(C(=O)O)CC[C@@H](C(=O)O)C1
  5822, -19
- CC1CNC(=S)N(c2ccccc2)C1=O (centres undefined)
  3747, -80
- C[C@@H]1NC(=O)[C@@]2(C)[C@@H](c3ccccc3)[C@H]3COc4ccccc4[C@@H]3N2C1=O
  3425, -23

# Each structure is followed by: Autofluor counter, PrP UTR inh
- CC(C)(C)OC(=O)C[C@H]1C/C=C\C[C@@H](CC(=O)N(CCO)Cc2ccccc2)C(=O)N[C@@H](c2ccccc2)COC1=O
  3351, 3
- O=C(c1ccccc1)c1coc(-c2ccccc2)c1
  4011, -120
- O=C(C[n+]1ccccc1)N/N=C/c1ccccc1Cl
  3665, -21
- C[C@H]1NC(=O)[C@]2(C)[C@@H](c3ccccc3)[C@H]3COc4ccccc4[C@@H]3N2C1=O
  3806, -5
- O=c1cc(C=NNc2ccccc2)[nH]c(=O)[nH]1
  3312, -32
- Oc1ccc(C=NN=Cc2ccco2)c(O)c1
  2826, -51
- O=C1C=C(c2ccc3c(c2)oc2ccccc23)C[C@@H](c2ccc(Cl)cc2)C1
  3919, -21
